VDR inhibitor: inhibitors of human vitamin D receptor; P11473; VDR-SRC2-3 peptide fluorescence polarization, 2 h; Potency, µM, for the others: max response, negative = inhibition, actives largely listed as inhibitors; 0.93% of 400,000 active; AID 504847; active = well fitted inhibition curve with a large enough effect; inconclusive = small, poorly fitted or top-dose-only effect, or another doubt; inactive = no such curve, though single readings can be large or run the other way; also: series mostly up to about 120 µM
Target sequence (P11473 whole entry, looked up): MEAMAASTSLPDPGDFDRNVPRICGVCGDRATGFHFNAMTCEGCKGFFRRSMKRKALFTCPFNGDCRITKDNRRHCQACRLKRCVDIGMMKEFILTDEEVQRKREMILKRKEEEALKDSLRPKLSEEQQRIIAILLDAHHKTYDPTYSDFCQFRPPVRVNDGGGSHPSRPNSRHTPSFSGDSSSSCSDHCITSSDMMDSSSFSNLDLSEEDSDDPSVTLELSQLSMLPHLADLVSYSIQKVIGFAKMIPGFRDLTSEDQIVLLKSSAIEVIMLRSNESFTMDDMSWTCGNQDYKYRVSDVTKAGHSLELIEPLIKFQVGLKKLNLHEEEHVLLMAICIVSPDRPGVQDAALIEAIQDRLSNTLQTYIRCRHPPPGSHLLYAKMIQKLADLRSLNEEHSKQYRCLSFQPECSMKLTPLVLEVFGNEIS
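VDR–SRC2-3 interaction, FP format. Cmpds 23 nl via pintool, brief spin, 2 h ambient incubation.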
An asterisk follows results filed as active; ? = inconclusive; & = joins results of further samples. % is scaled to controls: 0 for no effect and ±100 for the full control effect; potency is read from the fitted curve at half-maximal effect. Some of the compounds tested. The share of hits here may be higher or lower than overall.

compound | VDR inhibitor
Cc1cccc(OCc2nnc(SC(C)C(=O)O)n2-c2ccccc2)c1 (centres undefined) | 2%
COc1ccc(C(=O)NC2CCN(C(=S)Nc3ccc(C)cc3)CC2)cc1 | 2%
Cc1ccc(/C=C\c2nccc3c2[nH]c2ccccc23)cc1 | -23%&-6%
O=C(CCc1c[nH]c2ccccc12)N[C@@H](Cc1c[nH]c2ccc(O)cc12)C(=O)O | -5%
O=C(O)CCC(=O)c1ccc2sc3ccccc3c2c1 | -15%
CC(C)CN(C(=O)COC(=O)Cc1c[nH]c2ccccc12)C1CCS(=O)(=O)C1 (centres undefined) | 7%
COc1ccccc1N1CCN(C(=O)C2CC(=O)N(c3ccccc3)C2)CC1 (centres undefined) | 3%
O=[N+]([O-])c1cc(S(=O)(=O)/N=C(/c2ccccc2)N2CCOCC2)ccc1Cl | -4%
CCCNc1nc(Nc2ccc(C)cc2)nc(N2CCCC2)n1 | 1%
COc1ccc(NC(=O)N2CC3(CCN(C(=O)c4ccc(OC)cc4)CC3)C2)cc1 | 1%
COc1cc(NC(=O)COC(=O)CSc2cc(C)ccc2C)c(C)cc1[N+](=O)[O-] | -13%
CCc1cc2c(-c3ccccc3)cc(=O)oc2c2c1OCN(Cc1ccc(C)cc1)C2 | 9%
COC(=O)c1c(NC(=O)C2COc3ccccc3O2)sc2c1CCN(Cc1ccccc1)C2 (centres undefined) | 20%
COc1ccc2c(c1)C(=O)N(c1ccc(C)cc1C)C(=O)C2 | -10%
Cc1cc(C)c2c(n1)SCC(=O)N2CC(=O)Nc1ccc(F)cc1 | -6%
CC1CC(C)CN(CCCOc2ccccc2[N+](=O)[O-])C1 (centres undefined) | 3%
CN(CCNC(=O)C1CCN(S(=O)(=O)N2CCOCC2)CC1)CCc1ccccc1 | -4%
C=Cn1c(C(=O)O)ccc1-c1ccc(CC)cc1 | 15%
Cc1ccc([N+](=O)[O-])c(OCc2ncc(Cl)n2C)c1 | -12%
Cc1cc(-n2c(C)cc(C(=O)COC(=O)CN=C3NS(=O)(=O)c4ccccc43)c2C)no1 | -11%
O=C(O)CN1C(=O)/C(=C/c2ccsc2)SC1=S | -7%
COC(=O)c1ccc(Cn2cnc3cnccc32)cc1 | -15%
Cc1ccc(C(C(=O)NCc2ccc(F)cc2)N(Cc2ccco2)C(=O)c2snc(C(N)=O)c2N)o1 (centres undefined) | -12%
Cc1ccc(/C=C2/SC(=S)N(c3ccc(S(=O)(=O)Nc4nccs4)cc3)C2=O)cc1 | 0%
Cn1c(=O)oc2cc(S(=O)(=O)N3CCCC(C(=O)NCc4ccc(F)cc4)C3)ccc21 (centres undefined) | -14%
OCCC1CN(CC#Cc2ccccc2)CCN1Cc1ccccc1F (centres undefined) | -11%
CC1CCCC(NC(=O)CSc2nnc(C(F)(F)F)n2C)C1C (centres undefined) | -7%
COc1ccc2nc(-c3ccccc3)nc(C3CCCCC3)c2c1 | 4%
CCc1ccc2[nH]c(=O)c(CN(Cc3ccccc3OC)C(=O)Nc3ccccc3OC)cc2c1 | 18%
CC(C)N(Cc1ccccc1)S(=O)(=O)c1ccc2c(c1)NC(=O)CO2 | -9%

Single values from the list:
In VDR inhibitor, Cc1ccc(C(C(=O)NCc2ccc(F)cc2)N(Cc2ccco2)C(=O)c2snc(C(N)=O)c2N)o1 (centres undefined) has the entry -12%
In VDR inhibitor, CCCNc1nc(Nc2ccc(C)cc2)nc(N2CCCC2)n1 has the entry 1%

Following part
compound | VDR inhibitor
Cc1nc(N)nc(N)c1Oc1ccc(Cl)cc1 | 5%
O=C(NNS(=O)(=O)c1ccccc1)c1cc2cc3ccccc3nc2s1 | 4%
Cc1ccc(S(=O)(=O)Nc2ccc(C(=O)N3CCN(c4ccccc4O)CC3)cc2)cc1[N+](=O)[O-] | -11%
Cc1cc(C)c(NC(=O)Cn2c(=O)n(Cc3ccco3)c(=O)c3ccc(C(=O)NC4CCCC4)cc32)c(C)c1 | 8%
CC(C)CN(C(=O)CSc1ncnc2ccccc12)C1CCS(=O)(=O)C1 (centres undefined) | -10%
CC(=O)Cc1cc(O)c2ccccc2c1OC(=O)c1ccc(Br)cc1 | 10%
Cc1ccc(C)n1-n1cnc2sc(-c3ccccc3)cc2c1=O | -7%
COc1cccc(-n2c(Cc3cc(=O)[nH]c(=O)[nH]3)nnc2SCC(=O)NC2CCCC2)c1 | -20%
O=C(Nc1ncn[nH]1)c1cc(S(=O)(=O)Nc2cccc(C(F)(F)F)c2)ccc1Cl | -9%
Cn1cc(S(=O)(=O)CC(=O)N2CCc3ccccc32)c2ccccc21 | 8%
Cc1cccc(-n2cnc(C(=O)Nc3cccnc3)c2)n1 | 3%
COc1cc(C2NC(=O)NC(C)=C2C(=O)OC(C)C)ccc1OC(=O)c1ccco1 (centres undefined) | 2%
CC1(C)CC(=O)N(c2cc(Cl)ccc2Cl)C(=O)C1 | 3%
Nc1nnc(SCC(=O)Nc2cccc(S(=O)(=O)N3CCCCC3)c2)s1 | 15%
Cc1ccc(/C=C/c2onc(C)c2S(=O)(=O)N2CCC(C(=O)N3CCN(c4cccc(C)c4)C(C)C3)CC2)cc1 (centres undefined) | 23%
COc1ccc(NC(=O)C(CC(=O)O)Cc2ccc(Cl)cc2)cc1 (centres undefined) | -12%
O=C(CCN1C(=O)c2ccccc2C1=O)Nc1cccc(O)c1 | -9%
COC(=O)c1cnc(Oc2ccc(NC(=O)NC(=O)c3c(F)cccc3Cl)cc2)cc1C(F)(F)F | -4%
O=C(O)c1ccc(CN2C(=O)c3ccccc3S2(=O)=O)cc1 | -3%
Cc1cccc(Cn2c(=O)n(CC3CCC(C(=O)N4CCC(C)CC4)CC3)c(=O)c3sccc32)c1 (centres undefined) | 10%
Cc1nc2ccccc2c2c1CC(C(C)(Cl)Br)O2 (centres undefined) | 11%
Cn1c(C(=O)OCC(=O)NCc2ccc(F)cc2)cc2occc21 | -3%
CCOc1ccccc1OCC(=O)NN1Cc2ccccc2C1=N | -4%
COC(=O)Nc1sc2c(c1C(=O)N1CCOCC1)CCC(C)C2 (centres undefined) | ?
c1ccc(CSc2nccc(-c3ccco3)n2)cc1 | -13%
Cc1cc(-c2csc3ncnc(N4CCN(C)CC4)c23)cc(C)c1C | 15%
Cc1csc(NC(=O)CS(=O)(=O)Cc2ccccc2)n1 | 22%
CCN(CC)C(=O)CSC1c2ccccc2C(=O)N1c1ccccc1 (centres undefined) | 9%
COc1ccc2cc(C(=O)Nc3ccc(Cl)cc3)sc(=O)c2c1OC | -7%
CCOc1ccc(C(=O)CCC(=O)NCC(=O)Nc2c(C)cccc2C)cc1 | 5%

The list goes on (3 carried over from the part before).
compound | VDR inhibitor
CCN(CC)C(=O)CSC1c2ccccc2C(=O)N1c1ccccc1 (centres undefined) | 9%
COc1ccc2cc(C(=O)Nc3ccc(Cl)cc3)sc(=O)c2c1OC | -7%
CCOc1ccc(C(=O)CCC(=O)NCC(=O)Nc2c(C)cccc2C)cc1 | 5%
CC(C)NC(=O)NC(=O)COC(=O)/C=C/c1ccccc1[N+](=O)[O-] | 14%
CCCCOc1ccc(C(=O)Nn2c(-c3cccs3)nc3ccccc3c2=O)cc1 | -6%
COc1ccc(CC(=O)N/N=C(\C)c2cccs2)cc1 | 2%
CCCCSc1[nH]c(=O)c(C(=O)OCC)cc1C#N | -1%
COc1ccc(OC)c(CN2CCN(CCCc3ccccc3)C(CCO)C2)c1 (centres undefined) | 2%
c1ccc2c(c1)CCCn1nnnc1-2 | 16%
Cc1ccc(NC(=O)CCCCCN2C(=O)[C@@H]3Cc4ccccc4CN3C2=O)cc1 | 0%
CC1CCN(C(=O)c2ccc(S(=O)(=O)Cc3ccccc3F)c([N+](=O)[O-])c2)CC1 | 1%
Cc1ccccc1Cn1c(=O)n(CCc2ccccc2)c(=O)c2sc3ccccc3c21 | 7%
CC(=O)Nc1ccc(NC(=O)CSc2ccc3nnc(-c4ccccn4)n3n2)cc1 | 16%
CCOC(=O)c1ccc(NC(=O)C2CCCN(c3ncnc4onc(C)c34)C2)cc1 (centres undefined) | 3%
O=C(Nc1cccnc1)OC1CCCCC1 | 3%
Cc1ccc(NC(=O)CN(C)C(=O)CSc2nc(C)cc(C)n2)cc1 | 4%
COc1cccc(-c2cc(C(=O)N3CCc4ccccc4C3)[nH]n2)c1 | 9%
O=C(C1CCCO1)N1CCN(C(=S)Nc2cc(F)cc(F)c2)CC1 (centres undefined) | -6%
Cc1cccc(S(=O)(=O)c2cn(Cc3ccccc3)c3cc(N4CCCC(C)C4)c(F)cc3c2=O)c1 (centres undefined) | 11%
Cc1cc(NC(=O)CSc2nnc(CNc3cccc(C(F)(F)F)c3)n2Cc2ccco2)no1 | -15%
O=C1CN(/N=C/c2ccc([N+](=O)[O-])o2)C(=O)N1 | -12%&7%&-13%
COc1cccc(C(=O)Oc2cc(N)n(S(=O)(=O)c3ccc(C)cc3)n2)c1OC | 2%
COc1ccc(C(C(=O)NC(C)(C)C)N(CCc2ccccc2)C(=O)CCC(=O)Nc2cc(C)on2)cc1 (centres undefined) | 1%
COc1nonc1NCn1nc(C)cc1C | -3%
Cc1ccc(C)c(OCCC(=O)OCC(=O)Nc2cccc(S(=O)(=O)N3CCCC3)c2)c1 | -12%
O=C(COc1coc(CN2CCN(c3ccccc3)CC2)cc1=O)N1CCc2ccccc21 | -18%
Cc1ccc(NC(=O)c2cc(S(=O)(=O)N3CCCC3)cn2C)cc1 | 7%
O=C(c1nc2ccccc2s1)N1CCSCC1 | -7%
CC(NC(=O)COc1ccccc1)C(=O)N1CCN(c2ccccc2)CC1 (centres undefined) | -6%
Cc1cccc(N(O)C(=O)Nc2cccc(Cl)c2)c1 | -16%
CN(Cc1ncc[nH]1)C(=O)CC1C(=O)NCCN1Cc1c(F)cccc1Cl (centres undefined) | 4%
O=C(NC1CCN(C(=O)Nc2cccc(F)c2)CC1)C1CCCCC1 | 5%
CCO[C@@H]1OC(C(=O)N2CCN(C)CC2)=C[C@H](c2csc3ccccc23)[C@H]1CCCO | -10%

Sorted by SMILES length (highest first): 6 of the compounds above.
compound | VDR inhibitor
Cc1cccc(S(=O)(=O)c2cn(Cc3ccccc3)c3cc(N4CCCC(C)C4)c(F)cc3c2=O)c1 (centres undefined) | 11%
Cc1cc(NC(=O)CSc2nnc(CNc3cccc(C(F)(F)F)c3)n2Cc2ccco2)no1 | -15%
CC(=O)Nc1ccc(NC(=O)CSc2ccc3nnc(-c4ccccn4)n3n2)cc1 | 16%
CC(NC(=O)COc1ccccc1)C(=O)N1CCN(c2ccccc2)CC1 (centres undefined) | -6%
O=C(NC1CCN(C(=O)Nc2cccc(F)c2)CC1)C1CCCCC1 | 5%
c1ccc2c(c1)CCCn1nnnc1-2 | 16%

Continued:
compound | VDR inhibitor
Cc1ccc(S(=O)(=O)N2CCN(C(=O)COc3ccc(-c4nnco4)cc3)CC2)cc1 | -16%
O=c1cc(-c2ccc(O)cc2)oc2c(-c3cc(-c4cc(=O)c5c(O)cc(O)cc5o4)ccc3O)c(O)ccc12 | -12%
CCC1CCCCN1S(=O)(=O)c1ccc(C(=O)Nc2nnc(C3CC3)o2)cc1 (centres undefined) | 2%
O=C(N/N=C/c1cccc([N+](=O)[O-])c1)C1CC(=O)N(c2ccc(F)cc2)C1 (centres undefined) | -12%
O=C(NC1=NCCS1)c1ccc(Br)s1 | -10%
COc1cccc(CNC(=O)c2sc3nc4n(c(=O)c3c2C)CCC4)c1 | 9%
O=C(COc1ccccc1)Nc1ccc(C(=O)N2CCCC2)cc1 | 20%
CC(=O)c1ccc(N2CCN(C(=O)c3ccc4nc[nH]c4c3)CC2)cc1 | 1%
O=C1COc2ccc(C(=O)COC(=O)Cc3ccsc3)cc2N1 | 12%
CN(C)c1ccc(NC(=O)C[n+]2ccccc2)cc1 | -10%
Cc1ccc2c(c1)c1c(c(=O)n(-c3ccccc3)c(=O)n1CC(=O)c1ccc(Cl)cc1)n2C | 25%
O=C(/C=C/c1ccco1)NC(=S)Nc1ccccc1Br | ?
Cc1c(CNCCCc2ccccc2)c(C(=O)O)c(C)n1Cc1ccc(Cl)cc1 | 13%
COc1cccc(N2CCN(C(=S)Nc3ccc(C)cc3C)CC2)c1 | 16%
O=C(NCc1cccnc1)c1cc(-c2cccs2)on1 | -2%
O=C(O)Cn1c(SCc2ccccc2)nc2ccccc21 | -5%
CC(C)CC(=O)Nc1ccc2nc(SCC(=O)N3CCc4ccccc43)sc2c1 | 8%
O=C1CN(c2nc(-c3cccnc3)nc3scc(-c4ccccc4)c23)CCN1 | -1%
CC(C)NC(=S)NNc1nc2ccccc2s1 | ?
COC(=O)CSc1nnc(C)n1-c1ccc(C)cc1 | -9%
CN(C)c1ccc(N/C=C/C(=O)c2ccccc2)cc1 | 79µM*
C#CCOCCOCCOCCNc1nc(N2CCN(C(=O)CCCCCCCCCCNC(=O)Cn3cc(CCCCCN)nn3)CC2)nc(N2CCN(C(=O)CCCCCCCCCCNC(=O)Cn3cc(CCCCCN)nn3)CC2)n1 | 5%
COc1cc(OC)c(NC(=O)c2cc3ccccc3cc2O)cc1Cl | -10%
COc1ccc(C2(CNC(=O)C(=O)Nc3ccc(F)cc3)CCCC2)cc1OC | -6%
COc1cc(C(=O)N2CCN(C(=O)COc3cccc(C)c3)CC2)cc(OC)c1OC | -7%
CCCCn1nc2cc(C(=O)NCc3cc(C(F)(F)F)cc(C(F)(F)F)c3)ccc2c1OCC | 9%
Cn1nc(C(F)(F)F)cc1C(=O)O | -4%
CC(C)Cc1nnc(NC(=O)Cc2cccs2)s1 | 16%
Cc1ccc(C(O)P(=O)(OC(C)C)c2ccc(N(C)C)cc2)cc1 (centres undefined) | 8%
CCN(CC)CCN(Cc1cc2cc3c(cc2[nH]c1=O)OCO3)C(=S)NCc1ccco1 | -6%
COc1cc2[nH]c(=O)n(CCCCCC(=O)N3CC=C(c4ccccc4)CC3)c(=O)c2cc1OC | 13%

High-throughput results (PubChem BioAssay)
